# High-throughput results as filed in PubChem.
# NPYLR7 ag: activates Aedes aegypti NPYLR7 receptor; 0.15% of 270,000 active; HEK293T NPYLR7/Galpha15, GCaMP6s calcium fluorescence; activation, % at 10 µM; in the data active means activation above about 40%;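 further: 0% = vehicle and 100% = reference agonist at the receptor; some compounds past the cut are filed as inactive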
# NPYLR7 ag max-min: also measured in NPYLR7 ag; calls as there; activation, %; measured here: Max-Min RFU normalised activation; some inactives read as strong as hits;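 span of the calcium signal over five minutes; 0% = vehicle and 100% = native peptide agonist; compound fluorescence can raise it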
# Numbers without * were called inactive.
SMILES,NPYLR7 ag,NPYLR7 ag max-min
O=C(CCc1ccccc1O)N1CCC2(CC1)Nc1ccccc1C(=O)N2Cc1ccccc1,-1,28
CC(C)OC(=O)c1c(NC(=O)c2cc3nc(-c4ccco4)cc(C(F)(F)F)n3n2)sc2c1CCCC2,-7,-8
C=CCSc1nc2c(c(=O)[nH]1)C(c1cccs1)C(C(=O)OCC)=C(C)N2 (stereo not given),3,5
O=C([C@H]1CCCO1)N1CCc2nnc(CCc3ccccc3)n2CC1,0,9
CC(C)(C)OC(=O)N1CCC(Oc2ccc(NC(=O)Nc3cc(Cl)ccc3Cl)cc2)C1 (stereo not given),-7,-11
COCCOc1ccccc1C(=O)N1CCN(C2CCCCNC2=O)CC1 (stereo not given),-3,-4
CC(C)COCC(O)CN(C)CC1CC(c2ccc3c(c2)OCO3)=NO1 (stereo not given),-3,2
O=C(Cc1ccsc1)N1CCOC(COc2cccc(C(F)(F)F)c2)C1 (stereo not given),2,15
CCOC(=O)c1c(NC(=O)C(C)(C)C)sc2c1CCC2,6,3
O=S(=O)(Nc1ccc(S(=O)(=O)Nc2ncccn2)cc1)c1ccc2ccccc2c1,2,1
O=C(Nc1cc(C(F)(F)F)c[nH]c1=O)c1cccnc1Sc1ccccc1,10,4
O=C(c1ccccc1)N1N=C(c2ccc(Br)cc2)CC1c1ccccc1 (stereo not given),-8,-10
C=CCN(Cc1ccccc1C)C(=O)[C@H](N)c1ccccc1,18,11
COC(=O)Nc1ccc(S(=O)(=O)ON=C2C=CC(=O)C=C2C)cc1,4,2
CCOC(=O)N1CC(=Cc2ccsc2)C(=O)C(=Cc2ccsc2)C1,-15,-22

# Record cards (already shown). Values in the order: NPYLR7 ag | NPYLR7 ag max-min
# Profile of CCOC(=O)c1c(NC(=O)C(C)(C)C)sc2c1CCC2 → 6 | 3
# Profile of CC(C)OC(=O)c1c(NC(=O)c2cc3nc(-c4ccco4)cc(C(F)(F)F)n3n2)sc2c1CCCC2 → -7 | -8

# New compounds follow:
SMILES,NPYLR7 ag,NPYLR7 ag max-min
CCCc1ccc(S(=O)(=O)NNC(=O)c2ccc(NS(=O)(=O)c3cccs3)cc2)cc1,5,13
Cc1cccc(N(C)C(=O)c2cc(F)cc(Br)c2)n1,2,-1
O=C(CC(c1cccc(F)c1)c1cn(Cc2ccccc2)c2ccc([N+](=O)[O-])cc12)NCCN1CCCCC1 (stereo not given),-1,7
NC(=O)CN(CC(=O)Nc1cccc(Cl)c1Cl)c1ccccc1,3,1
Cn1c(=S)[nH]c2cc(C(=O)NC3CCCc4occc43)ccc2c1=O (stereo not given),0,-1
CC(C)(C)NC(=O)CON=C1CCC2(CC1)OCCO2,1,16
Cc1nc(NCCNC(=O)c2ccc3c(c2)OCO3)cc(N2CCOCC2)n1,3,1
Cc1sc(=O)n(CCC(=O)N2CCOCC2C#N)c1C (stereo not given),-2,-4
COc1cc(=O)n(-c2ccccc2C)nc1C(=O)NCc1ccccc1,3,2
Cc1cc(C)c(C#N)c(N2CCN(Cc3ccc4c(c3)OCO4)CC2)n1,4,13
CN(C)c1ccc(NC(=O)c2cccs2)cc1CN(C(=O)c1ccc(F)cc1)C1CCCCC1,1,16
CCc1nc2ccc(C(=O)Nc3ccc(C(N)=O)cc3)cn2c1N(CC)Cc1ccc2c(c1)OCCO2,11,11
O=C(c1cn2cccnc2n1)N1CCOC(c2ccc(Cl)c(Cl)c2)C1 (stereo not given),3,-1
Cc1cnc(N2CCN(CC(C)C)C(CCO)C2)nc1N(C)C (stereo not given),2,2
COc1ccc(OC)c(NC(=O)N2CCCC(CNS(=O)(=O)c3cccs3)C2)c1 (stereo not given),17,7
CC1CC(C)CN(c2nnc(SCC(=O)NC3CC3)n2Cc2ccco2)C1 (stereo not given),7,0
O=C(C1CCCN(S(=O)(=O)c2ccc(F)cc2)C1)N1CC=C(c2ccccc2)CC1 (stereo not given),2,3
Cc1cc(C)c(NC(=O)c2cc(C)nc3c2cnn3C(C)C)c(C)c1,18,11
COCCN1C(=O)C(=Cc2c(NCc3ccco3)nc3c(C)cccn3c2=O)SC1=S,6,14
Cc1nc(CN)cc(N2[C@@H]3CC[C@H]2CC(O)C3)n1 (stereo not given in full),27,13
O=C(Cc1cccs1)NC1CCN(CC2CCCCC2)CC1,-20,-22
CCCC(=O)NCCc1cc2cc(C)c(C)cc2[nH]c1=O,0,10
COc1cc(C)ccc1S(=O)(=O)NC(=O)C1(C)CCN1C(=O)C1CCCCC1 (stereo not given),2,3
COc1ccc(C(=O)N2C(C(=O)O)COC23CCCCC3)cc1OC (stereo not given),-10,-8
CC(Sc1nnnn1C1CCCCC1)C(=O)N1CCc2ccccc21 (stereo not given),-5,-5
O=C(c1cccc(-n2cnnc2)c1)N1CCc2onc(-c3cccc(F)c3)c2C1,18,13
CCc1nc(N(CCC(=O)NCC(C)C)C(C)c2ccccc2)c2ccc(Cl)cc2n1 (stereo not given),6,13
CCc1nc2c(c(=O)c3ccccc3n2C)c(=O)n1CCc1ccccc1,6,3
OCCCn1cnc(-c2ccccc2)c1-c1cc(F)c(F)cc1F,22,18
O=C(Cn1nnnc1CN1CCCCCC1)NCc1ccc(N2CCOCC2)cc1,-2,-3

# Three compounds from above, ordered by SMILES length, low to high:
SMILES,NPYLR7 ag,NPYLR7 ag max-min
Cc1nc(CN)cc(N2[C@@H]3CC[C@H]2CC(O)C3)n1 (stereo not given in full),27,13
COc1cc(C)ccc1S(=O)(=O)NC(=O)C1(C)CCN1C(=O)C1CCCCC1 (stereo not given),2,3
CCc1nc(N(CCC(=O)NCC(C)C)C(C)c2ccccc2)c2ccc(Cl)cc2n1 (stereo not given),6,13

# The results go on:
SMILES,NPYLR7 ag,NPYLR7 ag max-min
CC1CCN(C(=O)C2CCN(c3ccc(C#N)cn3)CC2)CC1,0,8
Clc1ccc(-c2csc3ncnc(Nc4ccccc4)c23)cc1,2,7
CCN(CC)CCCC(C)NC(=O)c1cc(-c2cccs2)nn1-c1cccc(Cl)c1 (stereo not given),-4,-2
CCC(CC(=O)NCC(=O)Nc1cn[nH]c1)c1ccccc1 (stereo not given),9,7
CCN(Cc1ccccc1)C(=O)CSC1=NS(=O)(=O)c2ccccc2N1,-1,-9
COC(C)(C)CC(C)NC(=O)N(C)C(C)C1CC1 (stereo not given),-2,-6
Cc1ccc(-n2nc(C)c(C(=O)NCc3ccccn3)c2C)cc1,14,17
O=C(c1ccc(=O)[nH]n1)N(CC1CCN(C2Cc3ccccc3C2)CC1)CC1CCCO1 (stereo not given),4,0
Cn1nnc2c(NCC3CCCO3)ncnc21 (stereo not given),13,7
Nc1nnc(Sc2nccc3ccccc23)s1,11,10
Cc1oc2c(c1C(=O)NC1CCC(n3cnnc3)CC1)C(=O)CCC2 (stereo not given),-4,-2
CCOC(=O)NC1CCN(CC)CC1,-3,-4
Cc1ccc(-c2ccc(N3CCCN(C(=O)CN(CC4CCCO4)C(=O)NC(C)C)CC3)nn2)cc1 (stereo not given),1,1
CCN(CC)c1ccc(C2Nc3ccccc3N=C3CC(C)(C)CC(=O)C32)cc1 (stereo not given),-3,-5
CCOc1ccc(-n2nnnc2CN2CCN(S(=O)(=O)c3ccc(C)cc3)CC2)cc1,2,2

# Looked up above:
# NPYLR7 ag result of O=C(c1ccc(=O)[nH]n1)N(CC1CCN(C2Cc3ccccc3C2)CC1)CC1CCCO1 (stereo not given) is entered as 4
# NPYLR7 ag max-min result of CCC(CC(=O)NCC(=O)Nc1cn[nH]c1)c1ccccc1 (stereo not given) is entered as 7
# NPYLR7 ag max-min result of CCOC(=O)NC1CCN(CC)CC1 is entered as -4
# NPYLR7 ag max-min result of CCN(CC)CCCC(C)NC(=O)c1cc(-c2cccs2)nn1-c1cccc(Cl)c1 (stereo not given) is entered as -2

# (further entries)
SMILES,NPYLR7 ag,NPYLR7 ag max-min
CC(C)C(O)CNC(=O)c1ccccc1OCC1CC1 (stereo not given),-1,-4
O=C(c1cccs1)N1CCCC(C(=O)N2CCc3[nH]c4ccccc4c3C2)C1 (stereo not given),2,1
COc1ccc2nc(C=Cc3ccsc3)cc(Cl)c2c1,3,9
O=C(c1ccc(CSc2ncn[nH]2)o1)N(Cc1ccsc1)C1CC1,17,7
O=C1OCC(c2ccc(Br)s2)=C1c1ccc(Cl)cc1,-11,-9
O=S(N1CCc2ccccc2C1)C12CC3CC(CC(C3)C1)C2 (stereo not given),0,0
CC(C)c1nc2cc(NC(=O)CN3C(=O)c4ccccc4C3=O)ccc2o1,-3,-4
C=c1occc1=C1NN=C(SCc2nnc(-c3ccco3)o2)O1,7,6
CCN1Cc2ccccc2N(C(C)=O)CCC1=O,24,33
CCN(CC)CCCNC(=O)c1cc(-c2cccs2)nc2cc(C)c(C)cc12,0,-8
Cn1cc(CN2CCC(C(=O)NC(c3ccc(-c4ccccc4)cc3)c3cnccn3)CC2)c2ccccc21 (stereo not given),13,-1
COc1ccc(C(C)=O)cc1CC(=O)NC1CCN(Cc2ccc(Cl)cc2)CC1,-6,-8
CCCCCC(C)NC(=O)C1C2C=CC(O2)C1C(=O)O (stereo not given),7,6
CCOC(=O)C1(CCOc2ccccc2)CCN(Cc2cc(CC(C)C)n[nH]2)CC1,2,8
Cc1[nH]nc(N)c1-c1ccccc1,4,7

# The last 2 records of the part above come first, to join the parts:
SMILES,NPYLR7 ag,NPYLR7 ag max-min
CCOC(=O)C1(CCOc2ccccc2)CCN(Cc2cc(CC(C)C)n[nH]2)CC1,2,8
Cc1[nH]nc(N)c1-c1ccccc1,4,7
COc1ccc(C(=O)Oc2ccc(/C=C3/C(=N)N4N=C(C(F)(F)F)SC4=NC3=O)cc2)cc1,-1,-1
O=C(Nc1ccccc1)c1cc2n(n1)CCN(C(=O)c1cnoc1C1CC1)C2,4,-3
O=C(c1ccc2nsnc2c1)N1CCCC(c2nnc(-c3ccccc3F)s2)C1 (stereo not given),-8,-9
O=C(c1ccc(F)c(F)c1)N1CCC(c2nc(-c3ccc(F)c(F)c3)no2)CC1,-2,-4
Cn1nccc1C(=O)NC1CCCN(C2CCCCCC2)C1 (stereo not given),11,9
CCc1nc(C)c(C(=O)N2CCOC(c3ccc(Cl)c(Cl)c3)C2)o1 (stereo not given),-3,-6
Cc1ccc2cc(C3(O)CCN(C(=O)CCCn4cncn4)CC3)ccc2n1,8,6
COc1ccc(OCc2cc(C(=O)NC(C)c3csc(C)n3)no2)c(Cl)c1 (stereo not given),1,-3
O=S1(=O)CCC(NCc2ccccc2)C1 (stereo not given),-9,-12
COCCN(CC(=O)N(CCc1ccccc1)Cc1ccc(C)o1)C(=O)Nc1ccc(C)cc1,3,18
Cc1ccsc1C=Nc1c[nH]c(=O)[nH]c1=O,0,2
CC(C)c1ccc(C=NNP2(=O)C=C(c3ccccc3)OC(c3ccccc3)=C2)cc1,0,0
CC(c1ccco1)N(C(=O)c1ccc(F)cc1)c1ccccn1 (stereo not given),8,6
CS(=O)(=O)CCn1cnc(-c2ccccc2)c1-c1cnn2cccnc12,-3,-6
COC(=O)CNC(=O)CSc1nnc(Nc2ccc(C(C)C)cc2)s1,1,6
CN1C(=O)C(C)(C)ON=C1c1ccc2c(c1)OCO2,3,2
Cc1nn(C)c(C)c1NS(=O)(=O)c1ccc2c(c1)C(C)C(=O)N2 (stereo not given),-3,11
CCCCc1cnc2c(c1SCC(=O)Nc1ccc(C(=O)OCC)cc1)c(=O)n(C)c(=O)n2C,2,7
O=C(CN1CCN(S(=O)(=O)c2cccc(Br)c2)CC1)N1CCNC1=O,-8,11
COc1ccc(CN2CCN(Cc3ccccc3F)CC2CCO)c(C)c1C (stereo not given),-7,-10
Cc1nc(Sc2ccccc2)c2oc3ccccc3c2n1,12,6
Cn1nc(NC(=O)c2cccc3ccccc23)c2c1NC(=O)CC2c1cccs1 (stereo not given),-14,-20
O=C(Nc1ccc(SCc2ccncc2)nn1)c1ccccc1,1,2
CCCCN1C(=O)C(=Cc2c(NCC3CCCO3)nc3ccccn3c2=O)SC1=S (stereo not given),5,4
Cc1nc(C2CCN(Cc3cc4n(n3)CCCNC4)CC2)cc(=O)[nH]1,8,3
CC(C)(CNC(=O)c1ccc(=O)[nH]c1)c1ccc2c(c1)OCO2,-3,-3
O=C(Nc1ccc(Cl)nn1)c1ccc(Cl)s1,1,-2
CCCCNC(=O)C(=O)NCC1OCCCN1S(=O)(=O)c1ccc(OC)cc1 (stereo not given),-5,-4
CCc1nc2ccc(C(=O)N(C)CCCN(C)C)cn2c1N(CC)CCOC,-3,-8
COc1ccc(C)cc1NC(=O)NCC1CCN(C2CCOCC2)C1 (stereo not given),-2,-2
C/C=C/C(=O)Nn1cnc2c(cnn2C(C)(C)C)c1=O,6,3
O=C(NCCc1ccc(Cl)cc1)Nc1cnn(-c2ncccn2)c1,4,4
CCc1nc2n(n1)C(=O)C(C(c1ccccc1)N1CCN(c3ccc(OC)cc3)CC1)S2 (stereo not given),-6,-7
CCCCC(=O)N(CCN1C(=O)c2ccccc2C1=O)c1cccc(F)c1,8,5
S=c1[nH]c2c(Cl)c(Cl)c(Cl)cc2o1,30,26
Cc1ccc(S(=O)(=O)NC(=O)C2(C)CCN2C(=O)c2cccc(F)c2)cc1 (stereo not given),0,-5
O=C(CCC1CCCN(Cc2cnc(N3CCCC3)s2)C1)Nc1ccccc1F (stereo not given),14,0
COc1ccc(CCN(C)c2cc(Cl)nc(SCC(=O)NCc3ccc4c(c3)OCO4)n2)cc1OC,-3,5
CC(C)Sc1nnc2nc3c(nn12)c1ccccc1n3C,-2,-3
O=C(CCn1ccc(=O)[nH]c1=O)OCc1cc(-c2ccc3c(c2)OCCO3)on1,1,-1
CCOC(=O)C1CCCN(Cc2nc(C3(c4ccc(C)cc4)CCCC3)no2)C1 (stereo not given),5,2
Cn1c(=S)[nH]c2c(c1=O)C1(CCCCC1)Cc1ccccc1-2,-1,33
Cc1cc(=O)c(C(=O)NCCSCc2ccco2)nn1-c1ccccc1,1,0
CN(Cc1ccon1)C(=O)[C@@H]1C[C@H](NC(=O)c2ccc(Cl)cc2)CN1C,1,-2

# Not all compounds are listed, so the mix of outcomes need not match the whole.
